Screening results: PubChem, Fisher Drug Discovery Resource Center
NPYLR7 ag: mosquito NPYLR7 agonism | HEK293T NPYLR7/Galpha15, GCaMP6s calcium fluorescence | activation, % at 10 µM | 270,000 tested, 0.15% active | AID 1259423; in the data active = activation above about 40%;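 also: 0% = vehicle and 100% = reference agonist at the receptor; some compounds past the cut are filed as inactive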
NPYLR7 ag max-min: further read-out of NPYLR7 ag, marked with its call; activation, %; measured here: Max-Min RFU normalised activation; some inactives read as strong as hits;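 span of the calcium signal over five minutes; 0% = vehicle and 100% = native peptide agonist; compound fluorescence can raise it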
* marks the source's active call; other numbers are inactive results; & = joins results of further samples. Not all compounds are listed; the hit share may differ from the screen's.

The line under a structure holds: NPYLR7 ag, NPYLR7 ag max-min
O=C(CC(c1cccc(O)c1)c1ccccc1Cl)N1CCCCO1 (stereo unspecified)
  -3, -3
c1cc(-c2ccc(N3CCNCC3)nn2)cs1
  15, 7
O=C(CSc1nnc2sc3ccccc3n12)N1CCCCC1
  -1, -4
CCc1csc(CNC(=O)c2cc(-c3cnn(C)c3C)on2)n1
  6, 4
CCn1cc(CC(=O)NCC(C)(O)C2CCCC2)c2ccccc21 (stereo unspecified)
  5, 4
Cc1cc2c(=O)n(Cc3ccco3)c(SCC(=O)NCc3ccccc3)nc2s1
  -3, -4
CCOC(=O)c1cc(-c2ccccc2)sc1NC(=O)c1ccccc1OCC
  -4, -4
CN(C)CCC(=O)C(Cc1ccccc1)c1ccccc1 (stereo unspecified)
  0, -3
CCCCC(CC)CNC(=O)c1nc(NCc2ccco2)ncc1Cl (stereo unspecified)
  -1, 16
Nc1cc(-c2cccc(Cl)c2)nn1-c1ccc(C(=O)N[C@H](CO)Cc2ccccc2)cc1
  9, 9
CCCOc1nn(CCC)cc1C(=O)N1CCC(C(N)=O)CC1
  2, -8
CN1CCN(c2nccc(C(F)(F)F)n2)CC1C(=O)O (stereo unspecified)
  13, 9
Cc1sc(NC(=O)c2ccncc2)nc1-c1ccccc1
  -2, -6
CCn1c(=NC(=O)c2ccccc2C)sc2ccccc21
  -6, -9
COc1ccc(C(=O)Nc2ccc(Nc3ccc(-n4nc(C)c(C)c4C)nn3)cc2)cc1
  -3, -7
O=C(NCCc1cnn(-c2ccccc2)c1)C1CC(Cc2ccccc2Cl)=NO1 (stereo unspecified)
  13, -2
O=c1c2nc(N3CCOCC3)sc2c(-c2ccccc2)nn1Cc1ccc(Cl)cc1Cl
  -4, -9
COc1ccc(-c2nc(N)nc3c2CN(C(=O)CCN2CCCCO2)C3)cc1
  4, 2
c1cc2c(cc1CNc1nc(C3CCCC3)nc3c1CNC3)OCO2
  20, 15
O=C(CSc1nc2c(c(=O)n1-c1ccccc1)SCC2)c1ccccc1
  -1, -4

(further entries)
The line under a structure holds: NPYLR7 ag, NPYLR7 ag max-min
Cc1cccc2[nH]c(COC(=O)C3CCCC3)cc12
  2, 1
O=c1oc2ccc3ccccc3c2cc1-c1nnc(Nc2ccc(Oc3ccc(Cl)cc3)cc2)s1
  -9, -18
COc1ccc(-c2nc(CSCc3ccc(Cl)c(Cl)c3)cs2)cc1OC
  4, 4
c1cc(-c2ccc(CNC3CC3)cc2)c2ccncc2c1
  3, 0
CCNc1cc(C)nc2nc(C(F)(F)F)nn12
  2, -1
Cc1cc(C)cc(-c2cncc(CN3CCC(C(N)=O)CC3)c2)c1
  5, 4
O=C(CN1CCc2sccc2C1c1cccc(F)c1)N1CCN(C(=O)NCc2ccccc2)CC1 (stereo unspecified)
  14, 17
Cc1nc2cc(NC(=O)CCc3ccc(S(=O)(=O)N4CCCC4)cc3)ccc2o1
  1, 7
Cc1nc2ccccc2c(C)c1CC(=O)NCC(C)C
  -3, -3
S=c1nc[nH]c2c1nnn2Cc1ccc(Cl)cc1
  -3, -4
Cc1ccc(-n2nc(C(C)(C)C)cc2NC(=O)CN(Cc2ccco2)C(=O)c2cccc(Br)c2)c(C)c1
  1, 8
COc1cc(-c2cnc(C)[nH]2)cc(OC)c1OC
  7, 2
CCCCCNC(=O)CN1C(=O)NC(C)(c2ccccc2)C1=O (stereo unspecified)
  3, -2
COc1cccc(-c2cc(-c3ccc(C(=O)NCc4ccc(OC)c(OC)c4)cc3)[nH]n2)c1
  31, 21
COc1cccc(C(=O)N2CCC(C(NC(=O)c3cccc(C)c3)C(=O)N3CCOCC3)CC2)c1 (stereo unspecified)
  -2, 5
COc1ccc(Br)cc1/C=C1/SC(=S)N(CC(=O)O)C1=O
  -1, -7
CC(C)(C)N1CC(C(=O)N2CCC(CCC(=O)NC3CC3)CC2)CC1=O (stereo unspecified)
  -6, -9
CCNC(=O)O[C@H]1[C@H](NC(=O)Cc2ccc(F)cc2)[C@H]2O[C@@H]1c1ccccc12
  6, 13
COc1ccc2cc(C3CN(C(=O)CCn4cnnc4)CCO3)ccc2c1 (stereo unspecified)
  3, 1
Cc1ccc2c(CC(=O)N3CCC(C(=O)O)CC3)coc2c1C
  -3, -8

(further entries)
The line under a structure holds: NPYLR7 ag, NPYLR7 ag max-min
COc1cccc(C(=O)Nc2c(C)nc3cc(C)ccn3c2=O)c1OC
  3, 0
COc1ccccc1C(C)NC(=O)NC(c1ccc2c(c1)OCCCO2)C(C)C (stereo unspecified)
  15, 15
CCN(CC)C(=O)Cn1cc(C(=O)N2CCCC2c2nc3ccccc3s2)nn1 (stereo unspecified)
  7, 2
COc1cc(C(=O)N(C)CCN2CCC(C)CC2)ccc1F
  -5, -6
Cc1ccc(Cl)cc1NS(=O)(=O)N1CCCCCC1
  14, 12
Cc1ccc(NC2=NC3CS(=O)(=O)CC3S2)cc1 (stereo unspecified)
  5, 1
CN(Cc1ccccc1)CC(O)Cn1cnc2cc(F)c(F)cc21 (stereo unspecified)
  -4&-2, -6&-3
CC(=O)c1ccccc1NC(=O)c1ccc(S(C)(=O)=O)cc1
  5, 4
N#Cc1c(NC(=O)c2cc(-c3cccs3)on2)sc2c1CCCC2
  -1, -1
CCCN(C)C(=O)c1ccc(CSc2nnc(-c3ccncc3)n2-c2cccc(Cl)c2)cc1
  24, 21
CNC(=O)[C@@]1(OCc2cccc(C)c2)CC(OCc2ccc(C#N)cc2)[C@H](O)[C@H](O)C1 (stereo partly specified)
  4, 6
COc1ccc(CCNC(=O)c2oc3c(Cl)cc(C)cc3c2C)cc1
  3, -2
Nc1nc2ccc3ccccc3c2s1
  0, 7
CCCCNC(=O)CSC1=Nc2ccccc2CS1
  5, 3
CCOC(=O)C1CCCN(C(=O)c2cnn(-c3ccc(Cl)cc3)c2CC)C1 (stereo unspecified)
  4, 15
COc1ccc(NC(=O)c2cccnc2SCc2ccccc2C)cc1OC
  1, -2
CCCC12CN3CC(C)(CN(C1)C3c1ccco1)C2=O (stereo unspecified)
  6, 2
Cc1cccc(C(C(=O)N2CCN(C)C3(CCN(C)CC3)C2)N(C)C)c1 (stereo unspecified)
  10, 8
CNC(=O)CSc1nnc(-c2ccco2)n1C
  1, 8
CC(C)=CC(=O)NCC1(CN2CCN(C)CC2)CC1
  2, 0

Another view of some results above:
COc1ccc(NC(=O)c2cccnc2SCc2ccccc2C)cc1OC
  NPYLR7 ag: 1
  NPYLR7 ag max-min: -2

CCCC12CN3CC(C)(CN(C1)C3c1ccco1)C2=O (stereo unspecified)
  NPYLR7 ag: 6
  NPYLR7 ag max-min: 2

Cc1cccc(C(C(=O)N2CCN(C)C3(CCN(C)CC3)C2)N(C)C)c1 (stereo unspecified)
  NPYLR7 ag: 10
  NPYLR7 ag max-min: 8

CNC(=O)CSc1nnc(-c2ccco2)n1C
  NPYLR7 ag: 1
  NPYLR7 ag max-min: 8

(further entries)
The line under a structure holds: NPYLR7 ag, NPYLR7 ag max-min
O=C(NC(C(=O)N1CCCC1)C1CCN(C(=O)c2ccc(Cl)cc2)CC1)C1CC1 (stereo unspecified)
  15, 16
CCc1ccc(C(=O)N2CCC3(CC2)SCCN3C(=O)c2cccc(C)c2)cc1
  16, 27
CC1NC(=S)N(c2ccc(-c3cn4ccsc4n3)cc2)C1=O (stereo unspecified)
  6, 6
NC1(C(=O)NCC2CCN(C3Cc4ccccc4C3)C2)CCCC1 (stereo unspecified)
  4, 1
CNc1nc2cnc(Nc3ccc(O)cc3)cc2n1-c1cccc(C(F)(F)F)c1
  -14, -17
C/C=C\C(=O)NCC1CN(c2ccccc2)C(=O)O1 (stereo unspecified)
  4, 5
NC(=S)N/N=C\c1ncccc1N
  8, -4
CCCNC(=O)N(Cc1nccn1Cc1cccc(C(F)(F)F)c1)CC1CC1
  5, 11
OC[C@@H]1C[C@@H]2O[C@H]1[C@H]1CN(Cc3ccccc3)C[C@H]1[C@@H]2O
  8, 14
COc1ccc(C(=O)NCCN2CCn3cc(OC)c(=O)cc3C2=O)cc1
  7, 3
Cc1nc(-c2ccc(F)cc2)sc1C(=O)N1CCCCC1CC(N)=O (stereo unspecified)
  1, 1
CC(C)Nc1cc(N2CCN(Cc3ccnc(C(C)C)n3)CC2)ncn1
  20, 15
CCN(CC)CCn1c2c(c(SCC(=O)Nc3ccccc3C)nc1=O)CCCC2
  2, 9
CCNC(=O)N1CCN(S(=O)(=O)c2ccc(C)c(C)c2)CC1
  -1, 15
CC1CC(C)CN(Cc2nc(N)nc(N)n2)C1 (stereo unspecified)
  7, 7
CCCCCN1CC2=C(C1=O)C(c1ccc(OC)cc1)NC(=O)N2 (stereo unspecified)
  2, -1
CCOC(=O)c1c(C)[nH]c(C(=O)C(C)OC(=O)c2cnc(C)cn2)c1C (stereo unspecified)
  6, 10
Cc1ccc(CNCc2cn(-c3ccc(F)cc3F)nc2-c2ccccc2C)o1
  0, -2
Cn1ccnc1C1CCCCN1Cc1c(C(=O)N2CCCCCCC2)nc2sccn12 (stereo unspecified)
  16, 0
O=C(NC1CC1)c1cc2n(n1)CCCN(C(=O)c1n[nH]c3ccccc13)C2
  -5, -13

An excerpt of these results, with tabs:
Molecule	NPYLR7 ag	NPYLR7 ag max-min
CCCCCN1CC2=C(C1=O)C(c1ccc(OC)cc1)NC(=O)N2 (stereo unspecified)	2	-1
CCOC(=O)c1c(C)[nH]c(C(=O)C(C)OC(=O)c2cnc(C)cn2)c1C (stereo unspecified)	6	10
Cc1ccc(CNCc2cn(-c3ccc(F)cc3F)nc2-c2ccccc2C)o1	0	-2
Cn1ccnc1C1CCCCN1Cc1c(C(=O)N2CCCCCCC2)nc2sccn12 (stereo unspecified)	16	0

Later entries:
The line under a structure holds: NPYLR7 ag, NPYLR7 ag max-min
O=C(Cc1ccccc1)Nc1ccnn1C1CCN(Cc2ccc(C3CCCC3)s2)CC1
  4, 2
CCC1CCCCN1C(=O)c1c(-c2ccccc2Cl)noc1C (stereo unspecified)
  -7, -14
NC(=O)[C@@H]1CN2CCN(C(=O)CC3CCCC3)C[C@@H]2[C@H]1c1ccccc1
  4, 9
Cc1cccnc1CC(C)N(C)C(=O)c1ccc2cccnc2n1 (stereo unspecified)
  9, 6
CCn1c(C2CCCN(C(=O)c3cnnn3-c3ccccc3)C2)nn(C)c1=O (stereo unspecified)
  2, 2
Nc1cc(-c2ccc(Cl)c(Cl)c2)nn1-c1ccc(C(=O)NCCOc2ccccc2Cl)cc1
  5, 0
Fc1ccc(-c2nc(-c3ccccc3Cl)no2)cc1
  -2, -8
Cc1cncc(NC(=O)c2ccc(CN(C)Cc3snnc3C)cc2)c1
  6, 9
O=C(CNC(=O)OCC(F)(F)F)NCC1CC=CCC1 (stereo unspecified)
  8, 5
CC(C)CNC(=O)c1cn(Cc2ccccc2)nc1OCc1ccccc1
  -1, -11
CCSC1=C(C#N)C(C)(C)C(C#N)C(=O)N1 (stereo unspecified)
  -2, -6
O=C(NC1CC1)C1COC2(CCN(C(=O)c3ccccc3Cl)CC2)N1C(=O)c1cccc(F)c1 (stereo unspecified)
  3, 9
CCCCNC(=O)C1(C)CCN1C(=O)c1ccc2ccccc2n1 (stereo unspecified)
  4, 0
Cc1ccc(C(NC(=O)C(C)c2c(C)nn(C)c2C)C(C)(C)C)o1 (stereo unspecified)
  1, -1
COCCCNC(=O)c1ccc2ccccc2c1
  7, 6
O=C1OC(/C=C\c2cccc([N+](=O)[O-])c2)=NC/1=C/c1ccc2c(c1)OCO2
  0, -4
CC1(C(=O)NS(=O)(=O)c2cccc(F)c2)CCN1C(=O)C1(c2ccccc2)CC1 (stereo unspecified)
  1, 2
Fc1ccc(C2CC(c3ccc(Br)cc3)=NN2c2nc(-c3ccccc3)c3cc(Cl)ccc3n2)cc1 (stereo unspecified)
  -5, 4
CC(=O)N1CCN(C(=O)CN2CCc3ccccc32)C(C)C1 (stereo unspecified)
  -1, 1
O=c1ccc(Br)cn1CCn1cc(Br)cn1
  0, -2

New compounds follow.
The line under a structure holds: NPYLR7 ag, NPYLR7 ag max-min
Cc1nnc(SCC(=O)NCC2CC(C(C)C)=NO2)s1 (stereo unspecified)
  12, -5
CN(Cc1csc(-c2cnn(C)c2)n1)CC1CCN(CCO)CC1
  3, 21
CCCNC(=O)c1cnn(-c2ccccc2)c1C1CC1
  -1, -3
CCc1nc(C)c(C(=O)NCCc2nc(C)c(C)s2)o1
  -8, -13
Cc1c(C(=O)N2CCOCC2)c(CC(C)C)nn1-c1ccc(F)cc1
  22, 26
CCN1CCCCC1CNC(=O)NCc1ccc(S(C)=O)cc1 (stereo unspecified)
  0, 0
O=C(Nc1ccc2nc([C@H]3C[C@H](O)[C@@H](CO)O3)[nH]c2c1)C1Cc2ccccc2O1 (stereo partly specified)
  10, 16
Cc1nc(C(C)NC(=O)CSc2ccncc2)n[nH]1 (stereo unspecified)
  9, -1
O=C(CN1C2=NCCN2c2ccccc21)c1cccc(Br)c1
  9, 4
COCCn1ccnc1C1CC(=O)Nc2c1c(C1CC1)nn2C (stereo unspecified)
  2, -3
O=C(c1cc(Cl)cc(Cl)c1)N(Cc1cccc(OS(=O)(=O)c2cccc(C(F)(F)F)c2)c1)Cc1ccco1
  -3, 6

Quoted at random: 2 entries already listed.
The line under a structure holds: NPYLR7 ag, NPYLR7 ag max-min
Cc1c(C(=O)N2CCOCC2)c(CC(C)C)nn1-c1ccc(F)cc1
  22, 26
CN(Cc1csc(-c2cnn(C)c2)n1)CC1CCN(CCO)CC1
  3, 21
